Source: PubChem (National Center for Advancing Translational Sciences (NCATS))
gsp antag – antagonists of gsp mutant (McCune-Albright syndrome); gsp-mutant cells, cAMP HTRF, 30 min; control for the full effect not named in the record; Potency, µM (titrated, usually from 76.9 µM), for the others: at the top dose activity change, negative = inhibition, most hits filed as inhibitors; 340,000 tested, 0.4% active; active = falling curve of any shape with a large fitted effect; inconclusive = falling curve, mostly with a smaller effect; inactive = flat or rising curve; cell line not stated here;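 note: intracellular cAMP measured with PDE inhibitor Ro 20-1724 present during compound exposure; potency is the fitted concentration of half-maximal effect; % is set by controls: 0 for no effect and ±100 for the full control effect; nearly all actives have a fitted effect of over 65% in size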
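Cells, 2000/well, grown 16–24 h in DMEM 10% FBS with 0.5 mg/ml G418, then compounds plus […] (300 uM addition stock), 30 min at 37C. cAMP read by HTRF (cAMP-d2 and anti-cAMP antibody-K in lysis buffer) after 30 min RT.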
gsp agonist – activates gsp, the McCune-Albright syndrome mutation | AID 624287 | gsp mutant cells, cAMP HTRF, 30 min; control for the full effect not named in the record | 340,000 tested, 0.13% active | Potency, µM (series often up to 76.9 µM), inactives show at the top dose activation (cAMP increase), usual class: activators; active = well fitted activation curve with a large enough effect; inconclusive = small, poorly fitted or top-dose-only effect, or another doubt; inactive = no such curve, though single readings can be large or run the other way; cell line not stated here;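 note: phosphodiesterase inhibitor Ro 20-1724 added with compounds to block cAMP breakdown; potency is the fitted concentration of half-maximal effect; nearly all actives have a fitted effect of over 60% in size; about a fifth of the inactives were tested at one dose only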
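Cells stably selected in G418 were plated at 2000/well, grown 16-24 hr, then given compounds in DMSO with the PDE inhibitor […] (300 uM solution added) for 30 min at 37C; cAMP was read by HTRF.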
Menin-MLL FL inh – inhibitors of human menin-MLL interaction, wild-type MLL peptide; Fluorescence polarization, fluorescein-MLL peptide displacement from menin; FP activity change, % at 61.4 µM; 290,000 tested, under 10 active; AID 1766; inconclusive = falling polarisation curve, or a change in total fluorescence; inactive = total fluorescence flat and polarisation flat or rising; no compound was filed as active; the % refers to the polarisation; negative = inhibition;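 note: % of control where 0% means no effect; inhibitors lower the polarisation; unlabelled MLL peptide was the positive control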
Sfp inh – Sfp phosphopantetheinyl transferase inhibition. Potency, µM, for inactives: max response, negative = inhibition, actives largely listed as inhibitors. Biochemical Sfp PPTase activity, qHTS. AID 1490. 310,000 tested, 3.5% active. Q9F4F7; active = well fitted inhibition curve with a large enough effect; inconclusive = small, poorly fitted or top-dose-only effect, or another doubt; inactive = no such curve, though single readings can be large or run the other way;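 note: the enzyme is Sfp with the accession as filed and its product quenches rhodamine fluorescence; potency is the fitted concentration of half-maximal effect; 0% = enzyme reaction without inhibitor and -100% = no enzyme wells; top concentration of the series not given in the record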
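With Hepes-Na pH 7.6 buffer containing 10 mM MgCl2, Sfp (15 nM) modified BHQ-2-YbbR (12.5 uM) using rhodamine-CoA (5 uM). Two reads 30 minutes apart at 525/598 nm yielded each well's rate.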
ClpP mod – qHTS Assay for Activators of ClpP. ATP-dependent Clp protease proteolytic subunit (Bacillus subtilis (strain 168)), P80244. purified B. subtilis ClpP, FRET peptide cleavage, 20 min. Potency, µM (highest dose often 57.5 µM), for inactives: top-dose activity change, negative = active. 340,000 tested, 1.9% active; active = well fitted falling curve with a large enough effect; inconclusive = small, poorly fitted or top-dose-only effect; inactive = no such curve, though single readings can be large or run the other way; note: potency is the fitted concentration of half-maximal effect; the source files actives as falling curves though it sought activators and does not explain the sign; nearly all actives have a fitted effect of over 65% in size; many hits overshoot -100%
Target sequence (P80244 whole entry, looked up): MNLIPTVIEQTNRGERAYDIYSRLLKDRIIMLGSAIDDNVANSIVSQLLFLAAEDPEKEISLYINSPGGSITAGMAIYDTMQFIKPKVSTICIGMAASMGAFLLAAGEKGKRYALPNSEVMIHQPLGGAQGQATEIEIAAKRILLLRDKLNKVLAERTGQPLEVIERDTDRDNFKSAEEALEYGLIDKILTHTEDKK
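Purified B. subtilis ClpP, 10 microg/mL final in Tris/HCl pH8 with KCl, BSA, glycerol and Tween-20, cleaved an Abz/nitrotyrosine-quenched decapeptide. Fluorescence (ex 320, em 430) was read at 0 and 20 min at room temperature. Delta was normalized to 5.8 microM ADEP and DMSO/no-enzyme controls.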
TRPV1 potentiator – human TRPV1 potentiation; Q8NER1; TRPV1-expressing cells, Fluo-8 calcium influx, capsaicin EC20 potentiation; host cell line not named in the record; control for the full effect not named in the record; potentiation, % at 8.33 µM; 320,000 tested, 0.02% active; active means potentiation above 80%; inconclusive means 30% to 80%; inactive means below 30%; note: 0% is about no effect
Target sequence (Q8NER1 whole entry, looked up): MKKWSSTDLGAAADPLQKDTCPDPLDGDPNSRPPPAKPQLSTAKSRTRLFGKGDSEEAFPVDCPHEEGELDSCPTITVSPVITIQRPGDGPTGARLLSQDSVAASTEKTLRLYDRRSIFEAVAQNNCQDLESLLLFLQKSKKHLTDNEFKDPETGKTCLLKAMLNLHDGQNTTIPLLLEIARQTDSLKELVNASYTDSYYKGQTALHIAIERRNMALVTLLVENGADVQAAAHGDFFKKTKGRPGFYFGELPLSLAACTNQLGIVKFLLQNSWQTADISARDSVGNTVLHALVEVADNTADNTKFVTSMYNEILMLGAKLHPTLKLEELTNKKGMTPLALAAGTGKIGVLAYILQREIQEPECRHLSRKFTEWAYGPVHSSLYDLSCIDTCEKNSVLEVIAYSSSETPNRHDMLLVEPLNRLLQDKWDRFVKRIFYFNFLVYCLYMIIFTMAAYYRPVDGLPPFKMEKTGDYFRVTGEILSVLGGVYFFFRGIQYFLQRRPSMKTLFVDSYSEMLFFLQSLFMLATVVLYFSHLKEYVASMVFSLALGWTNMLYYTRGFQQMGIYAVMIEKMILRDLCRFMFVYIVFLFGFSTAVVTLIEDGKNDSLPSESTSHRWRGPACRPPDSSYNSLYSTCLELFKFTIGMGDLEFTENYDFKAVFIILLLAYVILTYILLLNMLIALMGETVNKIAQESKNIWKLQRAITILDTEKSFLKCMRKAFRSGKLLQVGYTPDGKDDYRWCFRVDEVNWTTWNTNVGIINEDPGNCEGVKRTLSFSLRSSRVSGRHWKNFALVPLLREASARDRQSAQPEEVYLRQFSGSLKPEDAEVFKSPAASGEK
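Fluo-8 calcium influx in TRPV1-expressing cells, kinetic read (ex 480/em 520 nm). Compound added and read 3 min for agonist activity, followed by capsaicin at EC20 final and 2 min further read for enhancement.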
CtBP-E1A inh – blocks the CtBP interaction with E1A; 340,000 tested, 0.49% active; activity change, % (no concentration beside the values); AlphaScreen GST-E1A/His-CtBP binding, 1536-well; stronger effect = lower value; control for the full effect not named in the record; in the data active means activity change below about -65%; inconclusive means about -30% to -65%; inactive means above about -30%; note: % is set by controls: 0 for no effect and ±100 for the full control effect; compound concentration not given in the record
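Protein mix (5X: 125 nM each GST-E1A, His-CtBP) was incubated with pinned compound 2 h at 37 deg C in dark, in 50 mM Tris pH 8.0 buffer with 300 mM NaCl. Glutathione donor and nickel acceptor beads followed; AlphaScreen signal read after 1 h.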
The depositor's hits bear a star; ? = inconclusive; / = no result given; & = joins results of further samples; [ ] = another dose, or the depositor's remark.

compound | gsp antag | gsp agonist | Menin-MLL FL inh | Sfp inh | ClpP mod | TRPV1 potentiator | CtBP-E1A inh
CCc1ccc(S(=O)(=O)Nc2ccc(-c3ccc4nnc(C)n4n3)cc2)s1 | -6% | 20% | / | / | -2.2% | ? | /
CC(C)CCNC(=O)C(C)N(C(=O)c1snc(C(N)=O)c1N)c1cnc2ccccc2c1 (configuration not stated) | -11% | 0%[15.4 µM] | 6.0 | 10% | / | -5 | 4
O=[N+]([O-])c1cc(F)c(N2CCCCC2)cc1N1CCOCC1 | ? | 14% | 4.3 | -4% | 0.7% | -6 | -8
CCCCCC(=O)Nc1nc(C)c(-c2csc(Nc3ccc(Cl)cc3)n2)s1 | -3% | 0% | 5.3 | 4% | -16% | 6 | /
O=C(O)CC(NC(=O)OCc1ccccc1)c1ccccc1 (configuration not stated) | 7% | 1% | 2.1 | 22% | 0.8% | 0 | 3
CN(C)C(CNC(=O)CCS(=O)(=O)c1ccccc1)c1ccccc1 (configuration not stated) | 12% | -1%[15.4 µM] | 2.8 | 16% | -0.7% | 18 | 2
CC(C)(C)CN1CCNC(=O)C1CC(=O)N1CCOc2ccccc2C1 (configuration not stated) | 4% | ? | -8.4 | 7% | / | 5 | -5
O=C(Nc1ccc2c(c1)[C@@H]1C[C@@H](CC(=O)N3CCCCC3)O[C@@H](CO)[C@@H]1O2)NC1CCCCC1 | / | -3% | / | / | 0.8% | / | -7
O=C(Cc1ccccc1)N(c1ccc(F)cc1)C1C=CS(=O)(=O)C1 (configuration not stated) | 11% | -23% | 1.0 | 0% | 0.7% | 21 | 53
O=C(Nc1nnc(-c2ccc3c(c2)CCCC3)o1)C1CCCCC1 | -5% | -4% | -0.1 | 30%[activator] | -8.1% | 7 | -12
O=C(CN1CCN(C/C=C/c2ccccc2)CC1)NCc1ccccc1 | 1% | -10% | -3.4 | 5% | 1.5% | 1 | /
CC1CCN(c2ccc(NC(=S)NC(=O)c3ccc(-c4cccc([N+](=O)[O-])c4)o3)cc2)CC1 | 12% | -2% | 5.5 | ? | -0.5% | 6 | -19
O=C(NCc1cccc(Cl)c1)N1CCN(S(=O)(=O)c2ccccc2F)CC1 | -3% | -5%[15.4 µM] | 2.4 | 6% | / | -17 | 1
CC1CC(C)CN(C(=O)COC(=O)CNC(=O)C23CC4CC(CC(C4)C2)C3)C1 (configuration not stated) | 0% | -3%[15.4 µM] | / | / | 1.7% | 22 | 3
CCOc1ccc(NC(=S)NC(=O)c2cccnc2)c([N+](=O)[O-])c1 | -8% | 6%[15.4 µM] | -1.9 | -30% | -1.4% | 1 | -2
CCCc1cc(=O)oc2cc(C)cc(OC(C)C(=O)NCCN3CCOCC3)c12 (configuration not stated) | ? | -4% | / | 9% | 3.7% | 14 | 24
COC(=O)C1CN(C(=O)C(C)Oc2cccc(C)c2C)c2ccccc2O1 (configuration not stated) | -2% | 11% | 6.2 | -13% | -3.3% | 17 | -4
c1ccc(Cn2nnnc2C(c2ccncc2)N2CCOCC2)cc1 (configuration not stated) | 3% | -20% | -0.3 | 5% | 0.3% | -3 | 6
Cc1cc(S(=O)(=O)NCc2ccccc2)ccc1OCC(=O)N1CCCC1 | -4% | 1%[15.4 µM] | / | 6% | 1.5% | -8 | 2
Cc1nnc(Oc2ccccc2)c2ccccc12 | 1% | 23% | 0.5 | 9% | -2.8% | -5 | -6
CC(=O)c1ccn(S(=O)(=O)c2ccccc2)c1 | 8% | -7% | / | 3% | -2.9% | -6 | 10
COCCN(C(=O)COC(=O)CSc1cc(C)ccc1C)c1c(N)n(Cc2ccccc2)c(=O)[nH]c1=O | / | ? | / | / | -2.3% | / | -1
O=C(COc1ccccc1[N+](=O)[O-])OCCCOC(=O)COc1ccccc1[N+](=O)[O-] | -1% | ? | / | -1% | -0.4% | -3 | -2
Cc1cccc(N2CCN(C(=O)Cn3nc(Cc4ccncc4)c4ccccc4c3=O)CC2)c1C | 5% | ? | / | / | 1.3% | / | -12
COc1ccc2c(CN3CCN(Cc4ccccc4)CC3)cc(=O)oc2c1 | / | 6% | / | / | -18% | / | -9
COc1ccc(/C=C/C(=O)NC(=S)N2CCN(c3ccccc3OC)CC2)cc1 | -9% | 32% | 4.4 | -3% | / | 4 | -12
CCOc1ccc(C(=O)/C=C/c2ccc(SC)cc2)cc1 | -26% | -19% | 1.5 | -8% | -1.6% | -27 | -1
CCOc1ccc(NS(=O)(=O)c2cc(NC(=O)c3cccc(C)c3)ccc2Cl)cc1 | -20% | 29% | 2.2 | 33%[activator] | 2.4% | -11 | 0
O=C(NC1CCCC1)C(c1cccnc1)N(CCc1ccccc1)C(=O)c1ccco1 (configuration not stated) | -3% | ? | 2.2 | -10% | / | -8 | -8
Cc1ccc(NC2c3ncccc3C(=O)N2C2CCCCC2)cc1C (configuration not stated) | -10% | -1% | 2.9 | 0% | 0.3% | -17 | -16
Nc1ccc(Oc2ccc([N+](=O)[O-])cc2[N+](=O)[O-])cc1 | 8% | -23% | 1.1 | -12% | -0.5% | 5 | -12
CN(CC(=O)Nc1ccccc1Br)C(=O)CCCSc1nc2ccccc2[nH]1 | 5% | -3% | / | / | 0.8% | -11 | 4
CC(C)(C)NC(=O)/C(=C\c1ccco1)NC(=O)c1cccs1 | 6% | 7%[15.4 µM] | 1.3 | -8% | -1.1% | 8 | -3
CC1CCC(NC(=O)CN2CCN(S(=O)(=O)c3cccs3)CC2)CC1 (configuration not stated) | -3% | -11% | / | / | 0.0% | 16 | 1
O=C(c1ccco1)N1CCN(Cc2nnc(-c3ccccc3)o2)CC1 | -4% | 9%[15.4 µM] | -15 | 1% | -0.7% | 6 | 2
COc1cc(C(=O)O)c2c(c1C)OC(=O)c1c(C)cc(O)c(C=O)c1O2 | -7% | / | / | / | -2.1% | / | 3
C=CCn1c(=O)c2c(nc3n2CC(C)CN3Cc2ccccc2)n(C)c1=O (configuration not stated) | -4% | ? | 2.7 | 8% | 2.6% | -6 | /
O=c1cc(O)nc(SCc2ccccc2)[nH]1 | -7% | -63%[inhibitor] | -1.2 | 9% | -1.4% | 2 | 2
CCOC(=O)c1csc(NC(=O)c2cc(OC)c(OC)c(OC)c2)n1 | -3% | -2% | 2.4 | 13% | -2.4% | 4 | -2
CCN(CC)c1ccc(C(=C2C=CC(=[N+](CC)CC)C=C2)c2ccc(N(CC)CC)cc2)cc1 | ? | -170%[inhibitor] | / | / | 1.7% | / | -90*
O=C(Oc1cc(=O)n2ccccc2n1)c1ccccc1 | 13% | -8%[15.4 µM] | -2.4 | ? | 0.3% | 1 | 12
Cc1ccc(C)c2sc(N3CCN(C(=O)c4ccc([N+](=O)[O-])o4)CC3)nc12 | ? | 10% | / | / | -4.1% | -22 | 0
COC(=O)N/N=C/c1ccccc1OCc1ccccc1 | 9% | -1% | 0.7 | 10% | -0.7% | 2 | -3
Cc1cc2c(C)nc(N/N=C/c3ccc(F)cc3)nc2o1 | -11% | 19% | 0.6 | -16% | -11% | 1 | -1
CCN1C(=O)c2ccc(C(=O)Nc3c(C)cc(C)cc3C)cc2C1=O | 10% | -39% | 0.7 | 1% | / | -3 | 5
CC(=NO)C1CCC2C3CCC4=CC(=NO)CCC4(C)C3C(O)CC12C (configuration not stated) | -28% | -12% | / | / | -2.7% | / | -26
COc1ccccc1N1CCN(c2ncnc3c2oc2ccccc23)CC1 | -16% | 17% | -0.4 | 13% | -22% | -2 | 2
O=C(O)CCn1cc(/C=N/O)c(-c2cccc([N+](=O)[O-])c2)n1 | 2% | -24% | -0.6 | 15% | / | 1 | -10
C=CCNC(=S)N1CCC(C(=O)c2ccc(C)cc2)CC1 | -2% | 27% | 2.2 | 14% | 0.2% | -7 | 8
CCC(C(=O)NC(C)c1ccccc1)C(=O)NC(C)c1ccccc1 (configuration not stated) | -9% | 3%[15.4 µM] | -6.7 | 7% | 0.4% | -7 | 7

Next section:
compound | gsp antag | gsp agonist | Menin-MLL FL inh | Sfp inh | ClpP mod | TRPV1 potentiator | CtBP-E1A inh
CC(C)CNC(=O)c1cccc(NC(=O)Cc2ccc(Br)cc2)c1 | 3% | -17% | 3.1 | 4% | 0.9% | -4 | 5
CCOc1ccc(NC(=O)CCS(=O)(=O)c2ccc(Br)cc2)cc1 | -1% | -66%[inhibitor] | -14 | 0% | 0.9%&-1.8% | 6 | /
COc1ccc(N2C(=O)CCC(C(C)=O)=C2C)cc1 | 10% | -7% | 1.6 | 1% | 3.7% | 5 | -1
CC1CCCCC1NC(=O)COc1cccnc1[N+](=O)[O-] (configuration not stated) | 0% | -45% | / | / | -3.9% | / | -1
COc1ccccc1CNC(=O)c1cc(S(=O)(=O)N2CCCCC2)c[nH]1 | 8% | 4% | 28 | 3% | -0.6% | ? | 26
CC(=O)c1sc(=S)n(-c2ccccc2)c1C | 0% | 16% | -4.6 | 7% | / | -1 | 7
COCCCNC(=S)Nc1ccc2c(c1)OCCO2 | 8% | -12% | 1.3 | 6% | -0.6% | 26 | -17
COc1ccc(-n2ccsc2=S)cc1 | 1% | ? | -0.1 | -5% | -0.1% | 1 | 9
COc1ccccc1N1CCN(C(=O)c2cc(C)oc2C)CC1 | -5% | -5%[15.4 µM] | 20 | -21% | / | -14 | 2
CCOC(=O)CSCC(=O)Nc1ccc(S(=O)(=O)N2CCCCC2)cc1 | -11% | -39%[inhibitor] | -4.2 | 17% | 0.7% | 0 | -5
CCOC(=O)c1ccc(N2CN(CC)CNC2=S)cc1 | 12% | -6%[15.4 µM] | -1.5 | 8% | -2.5% | 3 | -3
COc1ccc(CC(=O)OCC(=O)c2ccc(F)cc2)cc1 | 3% | -1%[15.4 µM] | / | / | 1.1% | / | 19
Cc1ccc(-n2nnnc2CSc2nnc(-c3ccc(O)cc3)o2)cc1 | ? | -7%[15.4 µM] | 3.2 | -10% | -0.7% | -3 | 3
